High-throughput results deposited in PubChem by several laboratories.
UCH37 inh: inhibitors of human deubiquitinating enzyme UCH37; 330,000 compounds, 0.33% hits; purified proteasome/UCH37, Ub-AMC cleavage fluorescence; inhibition, % (concentration not given with the values); Q9Y5K5;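 active = mean of two replicates above 20%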;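 also: 0% = compound-free wells with enzyme and 100% = wells lacking proteasome; stock transfer was 100 nL into about 20 µL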
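Test system – human UCH37 enzyme supplied as purified proteasome complex · Incubation – 30 min preincubation with enzyme, 25 min cleavage at room temperature · Detection – AMC fluorescence from Ub-AMC cleavage, excitation 355 nm, emission 460 nm · Benchmarks – no-proteasome wells (full inhibition) and compound-free wells (no inhibition)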
MLL AF4-AF9 inh: MLL-AF4/AF9 protein interaction inhibition. P42568. AlphaScreen, biotin-AF4 peptide binding to FLAG-AF9. inhibition, % at 10 µM. 350,000 compounds, 0.47% hits. AID 651704;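 active = every replicate reaching a set inhibition limit, whatever the replicate mean, cut at about 25% in these data; inconclusive = mean inhibition reaches that limit but some replicates miss it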;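 also: 0% = plate neutral control median and 100% = total signal loss; the record names both 10 and 1 µM as test concentration; the first replicate is given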
Target sequence (P42568 whole entry, looked up): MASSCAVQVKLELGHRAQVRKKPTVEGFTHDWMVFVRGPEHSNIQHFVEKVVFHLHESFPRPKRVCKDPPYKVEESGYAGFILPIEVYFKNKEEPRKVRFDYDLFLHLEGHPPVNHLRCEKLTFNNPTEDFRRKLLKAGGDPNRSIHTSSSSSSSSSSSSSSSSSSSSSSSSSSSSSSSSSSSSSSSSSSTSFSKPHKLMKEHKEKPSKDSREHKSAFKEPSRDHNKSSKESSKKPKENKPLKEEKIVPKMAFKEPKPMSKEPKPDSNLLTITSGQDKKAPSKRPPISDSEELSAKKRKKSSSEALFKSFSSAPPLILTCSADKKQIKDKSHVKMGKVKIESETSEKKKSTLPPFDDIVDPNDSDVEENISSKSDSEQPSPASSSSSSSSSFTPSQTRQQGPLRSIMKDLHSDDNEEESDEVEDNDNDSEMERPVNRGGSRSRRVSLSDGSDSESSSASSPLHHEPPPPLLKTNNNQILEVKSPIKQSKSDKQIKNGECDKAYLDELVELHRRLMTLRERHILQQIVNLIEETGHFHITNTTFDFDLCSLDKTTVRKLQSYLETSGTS
HNF4A DNA FP: change in binding of human HNF4 alpha to DNA | P41235 | HNF4a-FITC DNA binding, fluorescence polarization, 1 h | activity change, % at 10 µM | 360,000 compounds, 0.3% hits; in the data active = activity change above about 30%, passing the limit was not always enough;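 also: controls were the assay level and a saturating level of protein; the project sought stronger binding though the title names inhibitors; some compounds called inactive have numbers as strong as hits; positive values seem to mean higher polarization but the record does not say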
Target sequence (P41235 whole entry, looked up): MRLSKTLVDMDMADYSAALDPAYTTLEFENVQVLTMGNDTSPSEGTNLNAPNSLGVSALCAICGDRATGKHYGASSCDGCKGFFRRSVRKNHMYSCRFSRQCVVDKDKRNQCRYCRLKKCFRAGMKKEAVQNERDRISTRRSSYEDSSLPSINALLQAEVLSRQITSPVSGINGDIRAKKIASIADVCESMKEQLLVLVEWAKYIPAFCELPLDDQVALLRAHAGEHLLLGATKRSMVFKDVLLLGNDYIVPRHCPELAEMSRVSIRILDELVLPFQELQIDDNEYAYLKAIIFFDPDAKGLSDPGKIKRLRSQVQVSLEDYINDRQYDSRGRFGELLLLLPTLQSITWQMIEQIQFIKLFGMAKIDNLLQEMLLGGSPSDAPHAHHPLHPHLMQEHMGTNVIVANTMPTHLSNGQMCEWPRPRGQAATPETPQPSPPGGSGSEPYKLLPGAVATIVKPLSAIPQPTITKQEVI
FGF22 binding: binders of recombinant human FGF22 by thermal shift. Q9HCT0. SYPRO orange fluorescence; percent of sucrose octasulfate shift, DMSO zero. 340,000 compounds, 1.5% hits. calls only at 9.99 µM;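 active = melting point raised past a set limit in the mean and every replicate; inconclusive = no clear call; three in four hits are not shown here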
RanGTP-Imp inh: inhibitors of RanGTP-importin-beta interaction, primary screen, biochemical, FRET, CFP-Ran, YFP-importin-beta, homogeneous; cell-free CFP-Ran/YFP-importin-beta FRET ratio; inhibition, % (concentration not given with the values); 300,000 compounds, 1.1% hits;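 active = most replicates above 15%; inconclusive = exactly half above 15%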;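 also: 0% = DMSO wells and 100% = Ran loaded with GDP instead of GTP; wells of about 40 µL received 100 nL stock; the first replicate is given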
Ecoli growth: blocks Escherichia coli growth. OD600, 23 h; stronger effect = lower value. 330,000 compounds, 0.21% hits. OD600 absorbance (test concentration not listed). AID 1053175;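 active = OD600 absorbance below the run mean of sample wells minus 3.6 SD, in any replicate, cut at about 0.56 in these data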;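 also: stock transfer was 300 nL into about 60 µL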
Vif TR-FRET: inhibitors of Vif binding to APOBEC3G peptide, primary screen, biochemical, TR-FRET, GST-Vif 1-94, biotin-A3G peptide, dose response retest (AID 1117319) | TR-FRET GST-Vif / biotin-A3G peptide binding; higher % means a stronger effect; test concentration not given here; strong numbers were not always called active | inhibition, %; hits with a dose series show IC50 in µM | 260,000 compounds, 0.57% hits;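 active = above the screen mean plus three standard deviations and confirmed in dose response; inconclusive = results disagree or hit not tested in dose response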;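 also: Vif residues 1-94 fused to GST binding biotinylated APOBEC3G peptide 110-148; 0% = full assay without inhibitor and 100% = GST in place of GST-Vif; retest series ran down from 100 µM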
Numbers without * were called inactive; i = inactive; ? = inconclusive; . = not tested or not shown; & = joins results of further samples. An excerpt; count on the stated rates, not on these rows.

Molecule | UCH37 inh | MLL AF4-AF9 inh | HNF4A DNA FP | FGF22 binding | RanGTP-Imp inh | Ecoli growth | Vif TR-FRET
CCOc1ccccc1C(=O)NCC(=O)Nc1ccc(-c2ccccc2)cc1 | -0.2 | -0.9 | 0.9 | i | -2.0 | 0.661 | -7.3%
O=C(NCc1ccncc1)C(=O)NCC1OCCN1S(=O)(=O)c1cc(F)ccc1F (centres undefined) | -2.0 | 0.9 | -1.6 | i | -4.9 | 0.733 | 0.6%
COC(=O)c1ccc2c(c1)NC(=O)c1ccccc1S2 | 4.5 | -10.9 | 4.0 | i | 1.3 | 0.658 | -30.9%
COC(=O)c1c(NC(=S)Nc2cc(OC)c(Cl)cc2OC)sc2c1CCCCC2 | 6.4 | . | -2.4 | . | 0.0 | 0.715 | 32.0%
CCOC(=O)CNC(=O)C(Cc1ccccc1)NS(=O)(=O)c1ccc2c(c1)CCC(=O)N2 (centres undefined) | 0.8 | . | 0.2 | . | -3.4 | 0.701 | -3.2%
COc1ccc(Cl)cc1NC(=O)c1cc(-c2cc(C)ccc2O)n[nH]1 | 4.7 | -6.4 | -0.8 | i | -2.8 | 0.65 | 2.5%
O=C(Nc1ccccc1)c1cccc(S(=O)(=O)NC2CCCC2)c1 | 0.2 | -6.6 | 4.2 | i | -1.7 | 0.716 | .
COCCOC(=O)C1=C(C)NC(=O)NC1c1cccc2ccccc12 (centres undefined) | 2.6 | -1.2 | -2.4 | i | 22.0* | 0.673 | -0.6%
O=C1c2ccccc2-c2c1cccc2C(=O)N1CCCCC1 | 1.3 | . | 1.8 | . | ? | 0.706 | 7.8%
Cc1ccc(C)c(Cn2c3ccccc3c3cnn(CC(=O)NCCCN4CCCCC4)c(=O)c32)c1 | -3.9 | 11.9 | 1.9 | i | 3.3 | 0.72 | .
Cc1noc(C)c1S(=O)(=O)Nc1ccc2c(c1)CC(=O)N([C@H](C)CO)C[C@H](C)[C@@H](CN(C)CC1CC1)O2 | 2.4 | 0.5&2.6 | 1.6 | i | . | . | .
O=C(Nc1ccc2nc(-c3cccnc3)[nH]c2c1)C12CC3CC(CC(C3)C1)C2 | -33.5 | . | -0.7 | . | ? | 0.69 | -4.2%
Cc1cc(C)c(C(=O)CSc2n[nH]c(=O)n2C2CC2)cc1C | -5.6 | . | 0.3 | . | 2.7 | 0.682 | -4.2%
CCc1ccccc1NC(=O)CNC(=O)CCc1nc2sc3c(c2c(=O)[nH]1)CCCC3 | -0.6 | -0.6 | -2.6 | i | ? | 0.67 | -8.8%
O=C(CSc1ccccn1)N/N=C/c1c[nH]c2ccccc12 | . | -1.5 | 2.6 | i | 1.4 | . | .
O=C(Nc1nc(-c2ccncc2)cs1)C1COc2ccccc2O1 (centres undefined) | 5.3 | 4.3 | 1.2 | i | -5.3 | 0.682 | 5.5%
O=C(Nc1ccc(C(=O)O)cc1)/C(=C\c1ccco1)NC(=O)c1ccccc1Cl | 5.4 | 0.1 | 0.3 | i | 3.2 | 0.696 | .
O=C(COC(=O)C1CC2C=CC1C2)Nc1cccc(S(=O)(=O)N2CCCCC2)c1 (centres undefined) | -0.6 | 5.5 | 6.7 | i | -1.7 | 0.636 | 5.3%
O=C(CCc1c[nH]c2ccccc12)NCC1COc2ccccc2O1 (centres undefined) | 3.7 | -0.2 | 3.8 | i | -0.8 | 0.72 | -8.0%
Cc1cc(C)cc(N2C(=O)CSC2c2ccccn2)c1 (centres undefined) | -0.8 | -4.5 | 8.3 | i | 2.3 | 0.681 | 10.8%
CC(=O)c1ccc(NS(=O)(=O)c2cc3c(cc2C)N(C(C)=O)CCO3)cc1 | 1.2 | -4.3 | -1.3 | i | -0.5 | 0.657 | .
Cc1ccc(C)c(NC(=O)C(OC(=O)c2ccc(C)s2)c2ccccc2)c1 (centres undefined) | 6.7 | . | -3.0 | . | -1.7 | 0.731 | 17.4%
Cc1ncc([N+](=O)[O-])n1CC(=O)NCc1ccccc1 | 6.8 | . | -3.0 | . | . | 0.73 | 8.9%
Cc1ccc2c(CSc3nnc(C4CC4)n3N)cc(=O)oc2c1C | 2.8 | . | -4.8 | . | 3.6 | 0.714 | 2.9%
O=C1c2ccccc2C(=O)N1c1cc([N+](=O)[O-])ccn1 | 5.2 | -8.9 | -1.5 | i | ? | 0.615 | 4.2%
Cc1ccc(NC(=O)CSc2nnc(CNC(=O)c3ccco3)n2C)cc1C | 5.6 | -2.0 | -1.9 | . | 2.8 | 0.688 | -4.2%
Cn1c(SCC(=O)Nc2ccccc2)nc2c([nH]c3ccccc32)c1=O | 2.7 | -0.8 | -3.2 | i | 9.5 | 0.748 | -5.0%
CC(C)(C)c1cc(C(=O)Nc2cccnc2)cc(C(=O)Nc2cccnc2)c1 | 3.5 | 0.4 | -0.4 | i | 1.3 | 0.636 | 0.3%
Cc1noc(C)c1CSCC(=O)Nc1ccc(Br)cc1Cl | -1.0 | -1.2 | 1.3 | i | -1.6 | 0.698 | 1.9%
Cc1cn([C@H]2C[C@H](O)[C@@H](CNCc3ccc4ncccc4c3)O2)c(=O)[nH]c1=O | . | 1.0 | -0.4 | i | . | . | -2.6%
CCOC(=O)c1cnc(-c2ccccc2)nc1Oc1ccccc1 | 1.5 | . | -1.0 | . | -0.8 | 0.748 | ?
Cc1ccc(-c2cc(C(=O)N/N=C/C=C/c3ccco3)c3ccccc3n2)cc1C | . | . | 4.0 | . | -1.6 | . | ?
CCNC(=O)N(CCOC)CC1CCCN(C2Cc3ccccc3C2)C1 (centres undefined) | -2.4 | -1.2 | 3.2 | i | -2.6 | 0.724 | .
COc1ccc(CC(=O)N(C)CC(=O)Nc2ccccc2C(F)(F)F)cc1S(=O)(=O)N1CCOCC1 | 0.5 | . | 0.1 | . | 4.5 | 0.646 | -2.2%
O=C(O)c1ccc(S(=O)(=O)c2ccc3c(c2)C(=O)N(c2ccccc2[N+](=O)[O-])C3=O)cc1 | 9.4 | -0.3 | 3.1 | i | -1.6 | 0.711 | 0.1%
CN(C)S(=O)(=O)c1cccc(NC(=O)COC(=O)c2cccc(S(=O)(=O)N3CCc4ccccc4C3)c2)c1 | 0.0 | -1.4 | 0.5 | i | 7.2 | 0.711 | .
C=CCn1c(SCCC#N)nnc1-c1ccncc1 | -1.7 | . | 5.6 | . | -1.5 | 0.721 | 17.5%
CC(NC(=O)c1ccco1)C(=O)OC(C)C(=O)NCc1ccccc1 (centres undefined) | 3.0 | -4.4 | 1.3 | i | -4.5 | 0.689 | .
C=CCSc1nc(NC)c2sccc2n1 | 1.3 | . | 0.3 | . | -1.3 | 0.731 | 23.5%
C[C@H](C(=O)CC(=O)OC(C)(C)C)[C@H](O)c1ccc(C(F)(F)F)cc1 | 2.7 | . | 2.6 | . | 2.3 | . | .
CC(=O)N1CCCc2cc(S(=O)(=O)N3CCCC(C(=O)Nc4cccc(F)c4)C3)ccc21 (centres undefined) | 4.5 | 1.9 | 0.3 | i | -0.7 | 0.666 | -1.3%
COc1ccc2c(c1)C1NC(=S)NC(C)(O2)C1C(=O)Nc1ccccc1C (centres undefined) | 0.2 | . | -2.7 | . | 5.3 | 0.7 | 3.3%
CCn1c(SCC(=O)N2c3ccccc3CCc3ccccc32)nnc1-c1ccc(OC)cc1 | 2.3 | . | 0.3 | . | 2.4 | 0.708 | .
Cc1ccc2c(c1)CCCN2CC(=O)N(C)c1c(N)n(Cc2ccccc2)c(=O)[nH]c1=O | . | 3.3 | -65.5 | i | . | . | -23.8%
COc1ccc(CCN2Cc3c(cccc3[N+](=O)[O-])C2=O)cc1OC | 0.6 | -1.6 | -2.4 | i | 1.5 | 0.679 | 0.1%
CN(C)/C=C1\C=C2C(=O)c3ccccc3N2C1=O | . | 1.7 | -110.2 | i | -475.7 | . | 1.6%
CC(C)CNC(=O)C1Nc2ccc(C(F)(F)F)cc2C2C=CCC12 (centres undefined) | -0.3 | . | -4.6 | . | 2.6 | 0.704 | .
O=C(NCc1nnnn1-c1ccc(Cl)cc1)c1ccc(Br)o1 | -0.6 | 1.1 | -3.5 | i | 1.2 | 0.639 | -2.5%
Cc1nc2c(C#N)c[nH]n2c(=O)c1Cc1ccccc1 | -0.6 | 0.6 | 1.2 | i | 3.0 | 0.644 | 2.4%
CCCn1c(=O)[nH]c(=O)c2c1nc(-c1ccc(C#N)cc1)n2CCOC | i | 1.2 | 0.8 | i | 6.6 | 0.692 | .
Cc1ccccc1-c1nsc(SCC(=O)NCc2ccc3c(c2)OCO3)n1 | -1.2 | -4.0 | 0.9 | i | 2.5 | 0.658 | .
O=C(Nc1cc(S(=O)(=O)N2CCOCC2)ccc1Cl)c1cc([N+](=O)[O-])ccc1Cl | -2.1 | . | 3.9 | . | . | 0.677 | 5.2%
Cc1c(C(=O)NCC(c2ccco2)N(C)C)oc2c(Cl)cccc12 (centres undefined) | -6.6 | ? | -1.8 | i | -1.8 | 0.705 | 8.1%
O=C(COc1ccc(Br)cc1Br)NC1CCS(=O)(=O)C1 (centres undefined) | 0.7 | -1.3 | -2.4 | i | -1.6 | 0.69 | 8.4%
CCOC(=O)C1C(=O)CC(C)(O)C(C(=O)OCC)C1c1ccc(C)s1 (centres undefined) | 3.7 | . | 0.3 | . | 0.7 | 0.76 | 5.5%
CN(C)S(=O)(=O)c1ccc(NC(=O)C2CC3C=CC2C3)cc1 (centres undefined) | 3.9 | -8.6 | 1.5 | i | -1.7 | 0.634 | .
CN(CC(=O)Nc1cccc(F)c1)C(=O)c1cn(-c2ccccc2)nc1-c1ccc(Cl)cc1 | 5.2 | 0.5 | 0.4 | i | . | 0.698 | 8.1%
COc1ccccc1N1CCN(S(=O)(=O)CCNC(=O)c2ccccc2Br)CC1 | 0.8 | -2.2 | 1.1 | i | 1.7 | 0.701 | .
Cc1cc(C(=O)OC(C(=O)Nc2cccc(C(F)(F)F)c2)c2ccccc2)c(C)o1 (centres undefined) | 1.5 | . | 4.2 | . | -1.5 | 0.674 | -1.3%
CC(C)C(=O)Nc1cccc(NC(=O)CCN2C(=O)c3ccccc3S2(=O)=O)c1 | 4.2 | 2.2 | -0.2 | i | -1.1 | 0.637 | ?
CN1CCN(c2ccc(Cl)cc2NC(=O)c2ccc(S(=O)(=O)N3CCCCCC3)cc2)CC1 | 1.3 | . | -0.5 | . | 1.5 | 0.695 | 3.8%
CC1S/C(=N/N=C2CCC(C(C)(C)C)CC2)NC1=O (centres undefined) | 1.4 | . | 3.9 | . | 1.0 | . | 0.3%

Three records picked at random from the list so far:
Molecule | UCH37 inh | MLL AF4-AF9 inh | HNF4A DNA FP | FGF22 binding | RanGTP-Imp inh | Ecoli growth | Vif TR-FRET
Cc1ccc2c(c1)CCCN2CC(=O)N(C)c1c(N)n(Cc2ccccc2)c(=O)[nH]c1=O | . | 3.3 | -65.5 | i | . | . | -23.8%
CC(C)CNC(=O)C1Nc2ccc(C(F)(F)F)cc2C2C=CCC12 (centres undefined) | -0.3 | . | -4.6 | . | 2.6 | 0.704 | .
O=C(Nc1cc(S(=O)(=O)N2CCOCC2)ccc1Cl)c1cc([N+](=O)[O-])ccc1Cl | -2.1 | . | 3.9 | . | . | 0.677 | 5.2%
